KCNQ2 block = KCNQ2 channel blockers in CHO-K1 cells – cell-based, FluxOR thallium flux, B-score, primary screen (AID 2156); O88943; 20 min; active compounds read low; only compounds with negative scores are shown here; some inactives read as strong as hits; B-score at 10 µM; 310,000 compounds, 1.1% hits;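 active = fluorescence ratio B-score at most minus 3 library SDs, with starting brightness B-score within 2 library SDs, cut at about -5.5 in these data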
Target sequence (O88943 whole entry, looked up): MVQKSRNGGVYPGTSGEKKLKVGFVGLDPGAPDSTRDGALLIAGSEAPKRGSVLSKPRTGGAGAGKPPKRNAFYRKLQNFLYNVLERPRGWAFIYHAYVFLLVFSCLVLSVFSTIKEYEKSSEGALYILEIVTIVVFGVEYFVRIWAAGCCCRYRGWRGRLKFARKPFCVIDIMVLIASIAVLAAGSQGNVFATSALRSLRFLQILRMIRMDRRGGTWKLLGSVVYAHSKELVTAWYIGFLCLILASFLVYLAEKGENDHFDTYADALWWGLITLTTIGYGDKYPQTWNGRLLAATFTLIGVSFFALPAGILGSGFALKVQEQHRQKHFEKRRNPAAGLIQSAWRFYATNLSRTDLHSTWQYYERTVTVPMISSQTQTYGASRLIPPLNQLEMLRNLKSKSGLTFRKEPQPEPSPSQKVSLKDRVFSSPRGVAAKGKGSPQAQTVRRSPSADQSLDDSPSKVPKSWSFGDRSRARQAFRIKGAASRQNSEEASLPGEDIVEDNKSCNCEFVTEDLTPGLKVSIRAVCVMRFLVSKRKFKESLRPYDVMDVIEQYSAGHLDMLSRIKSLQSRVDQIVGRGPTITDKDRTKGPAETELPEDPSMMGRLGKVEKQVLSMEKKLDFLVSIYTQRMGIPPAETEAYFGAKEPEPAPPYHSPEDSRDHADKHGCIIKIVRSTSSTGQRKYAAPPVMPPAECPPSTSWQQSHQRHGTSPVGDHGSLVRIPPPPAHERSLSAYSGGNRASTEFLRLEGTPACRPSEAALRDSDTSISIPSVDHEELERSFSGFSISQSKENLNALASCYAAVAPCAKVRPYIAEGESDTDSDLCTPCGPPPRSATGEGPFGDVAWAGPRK
KCNQ2 block baseline = recorded beside KCNQ2 block, whose call it bears; B-score; measured here: initial fluorescence intensity artifact check;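 brightness before thallium and not channel activity; 0 = typical well and far values either way flag optical interference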
Numbers without * were called inactive; i = inactive.

Every second line gives: KCNQ2 block, KCNQ2 block baseline
Cc1ccc(Sc2nc(-c3ccccc3)nnc2C(F)(F)F)cc1
  i, 1
COc1ccc(Cc2nnc(NC(=O)c3ccc(OC)c(OC)c3)s2)cc1
  i, 2.2
CSc1nc(-c2ccccc2)nc(N2CCCC2)c1C(C)=O
  i, -0.61
N#Cc1ccc(Oc2c(Cl)cncc2Cl)cc1
  i, 0.19
Cc1ccc(S(=O)(=O)Nc2c(NC3CCCCC3)c3ccccc3oc2=O)cc1
  i, 0.24
CCN(CC)c1ccc(C(=O)N/N=C/c2ccccc2OC(F)F)cc1
  i, -0.03
CCOc1cc(C2C(C(=O)OC)=C(C)N=C3SC(C)C(=O)N32)ccc1OC(C)=O (stereo not given)
  i, 0.04
O=C(/C=C/c1cccs1)N1CCC2(CC1)Oc1ccc(Cl)cc1C(=O)C21CC(c2ccc(Cl)cc2)=NO1 (stereo not given)
  i, 0.2
Cc1ccc(CN2CCN(/N=C/c3cc(Br)cc(Br)c3O)CC2)cc1
  i, -1.1
COc1ccc(OC(C)C(=O)NC2CCCCCC2)cc1 (stereo not given)
  i, -1.3
O=[N+]([O-])c1ccc(-n2ccnc2)cc1
  i, 1.3
COc1cccc(NC(=O)CCC(=O)Nc2cc(OC)c(NC(=O)c3cccs3)cc2OC)c1
  i, -0.74
Cc1ccc2oc(=O)c3cc(C(=O)NCCCN4CCc5ccccc5C4)sc3c2c1
  i, -1.2
CCOC(=O)c1[nH]c(C)c(C(=O)C(C)C)c1C
  i, 2.1
O=C(COC(=O)c1ccc(CO)cc1)Nc1ccc(OC(F)F)cc1
  i, -0.32
COCCNC(=S)N/N=C(\C)c1cc2ccccc2o1
  i, -0.28
COc1ccc(NC(=O)C2CC(=O)N/C(=N/N=C/c3ccco3)S2)cc1 (stereo not given)
  i, -2
O=C(Nc1cccc(C(F)(F)F)c1)c1ccc2nc(-c3ccco3)c(-c3ccco3)nc2c1
  -8.5*, -0.36*
CCc1nonc1NC(=O)c1oc2ccc(Br)cc2c1C
  i, -0.67
CCOc1ccc(S(=O)(=O)NCCSCc2ccco2)cc1
  i, -1.1
CCC(CC)C(=O)NCCc1cc2cc(C)c(C)cc2[nH]c1=O
  i, -1.1
CN(CC(=O)Nc1ccccc1Cl)C(=O)c1ccc(-c2cccc(C(F)(F)F)c2)o1
  i, 0.26
CC1CCc2sc(C(=O)NNC(=S)NC3CC3)cc2C1 (stereo not given)
  i, 0.01
COC(=O)c1ccc2c(=O)n(CC3CCCO3)c(SCC(=O)Nc3ccccc3Cl)nc2c1 (stereo not given)
  i, 1.3
O=C(CN1CCN(c2nc(-c3ccccc3)cs2)CC1)NCc1ccc2c(c1)OCO2
  i, 1.4
O=C(/C=C/c1ccc([N+](=O)[O-])cc1)N(c1ccccn1)C1CCCCC1
  i, 0.99
C[C@H](C(=O)CC(=O)OC(C)(C)C)[C@H](O)c1ccccc1
  i, 0.08
CCOc1ccc(C(=O)CCC(=O)Nc2ncccc2O)cc1
  i, 2.1
CC(=O)Nc1ccccc1OCc1cnc(Cl)s1
  i, 0.73
CCOc1ccc(C(=O)NC(C)CCc2ccccc2)cc1 (stereo not given)
  i, 1.6
CCOc1ccc(C2CC(=O)NC3=C2C(=O)CCC3)cc1Cl (stereo not given)
  i, -1
Cc1ccc(S(=O)(=O)NCC2CCC(C(=O)NCCCN3CCCC3=O)CC2)cc1 (stereo not given)
  i, -1.6
COc1cc(OC)cc(C(=O)Nc2nc(CC(=O)NCCc3ccccc3)cs2)c1
  i, -0.01
O=C(N/N=C/c1cccc([N+](=O)[O-])c1)c1ccc2c(c1)OCCO2
  i, 1.9
COc1ccc(NC(=O)C2CCCN2c2nn3c(=O)cc(C)nc3s2)cc1 (stereo not given)
  i, 0.02
O=C(COC(=O)c1cc([N+](=O)[O-])ccc1NCCO)NCc1cccs1
  i, 0.4
COc1ccc(S(=O)(=O)N2CCN(c3ccc(C)cc3C)CC2)cc1OC
  i, -2.4
O=S(=O)(NC(=NC1CCCCC1)c1ccccc1)c1ccccc1
  i, -0.39
CCN1CCN(Cc2ccc(NC(=O)c3cc(NC(=O)C(=O)c4c[nH]c5ccccc45)cc(OC)c3)cc2C(F)(F)F)CC1
  i, 0.58
Cn1c(N)c(C(=O)CCl)c(=O)n(Cc2ccccc2)c1=O
  i, 0.81
Cc1cc(C)c(S(=O)(=O)N2CCCC(C(=O)N3CCCC3)C2)c(C)c1 (stereo not given)
  i, 0.68
C=C(C)c1cccc(C(C)(C)NC(=O)N2CCC(C)CC2)c1
  i, -2.2
O=C(CCC(=O)N1CCOc2ccccc21)NCCCN1CCN(Cc2ccccc2)CC1
  i, -1.6
O=C(NCc1ccc(F)cc1)C(c1ccncc1)N(C(=O)c1csnn1)C1CC1 (stereo not given)
  i, 2.5
O=C(O)C(CCCCNS(=O)(=O)c1ccc(F)cc1)NS(=O)(=O)c1ccc(F)cc1 (stereo not given)
  i, -0.1

By substructure, the compounds so far containing a CF3 group (4)
Every second line gives: KCNQ2 block, KCNQ2 block baseline
Cc1ccc(Sc2nc(-c3ccccc3)nnc2C(F)(F)F)cc1
  i, 1
O=C(Nc1cccc(C(F)(F)F)c1)c1ccc2nc(-c3ccco3)c(-c3ccco3)nc2c1
  -8.5*, -0.36*
CN(CC(=O)Nc1ccccc1Cl)C(=O)c1ccc(-c2cccc(C(F)(F)F)c2)o1
  i, 0.26
CCN1CCN(Cc2ccc(NC(=O)c3cc(NC(=O)C(=O)c4c[nH]c5ccccc45)cc(OC)c3)cc2C(F)(F)F)CC1
  i, 0.58

(cont.)
Every second line gives: KCNQ2 block, KCNQ2 block baseline
COc1ccc(-n2c(C)ccc2C)c([N+](=O)[O-])c1
  i, -0.11
CCc1ccc(-c2cc(C(=O)N3N=C(C(F)F)CC3(O)C(F)F)c3ccccc3n2)cc1 (stereo not given)
  i, 0.54
CN(CCOc1ccc(CC2SC(=O)NC2=O)cc1)c1ccccn1 (stereo not given)
  i, -0.01
Cc1cc(C)n2nc(C(=O)OCC(=O)c3ccc(F)cc3)nc2n1
  i, 0.86
COc1ccc(S(=O)(=O)n2nc(-c3ccc(Cl)cc3)cc2N)cc1OC
  i, 1.6
NC(=O)c1ccccc1N(Cc1ccccc1)S(=O)(=O)c1ccccc1
  i, 2.7
O=C(NCc1ccncc1)C(=O)NCC1OCCN1S(=O)(=O)c1ccc(F)cc1 (stereo not given)
  i, -0.04
COc1ccc(NC(=O)CS(=O)(=O)c2ccc(F)cc2)cc1
  i, 0.37
O=C1CCC(/C=C/c2ccccc2)=NN1Cc1ccccc1Cl
  i, 0.91
CCn1c(/C=C2\C(=O)N(C(C)C)c3ccccc32)nc2ccccc2c1=O
  i, 0.93
CNc1nc2ccccc2n1N
  i, 0.69
O=C(c1cccs1)N(c1ccc(Cl)cc1)C1C=CS(=O)(=O)C1 (stereo not given)
  i, 2.5
Cc1cc(-c2ccccc2)nc(N2CCN(c3ccccn3)CC2)n1
  i, 2.9
Cc1ccccc1CN1CCNC(=O)C1CC(=O)NCCC1=CCCCC1 (stereo not given)
  i, -0.03
CC(=O)[C@@H]1[C@@H](C(=O)c2ccc(F)cc2)[C@]2(C(=O)Nc3ccccc32)[C@H]2C=Cc3cc(F)ccc3N12
  i, -1.2
Cc1nc2ccc(NC(=O)c3ccc([N+](=O)[O-])cc3)cc2[nH]1
  i, 0.75
C[C@@H]1C[C@@H]2OC(=O)[C@]3(C)[C@H]2[C@@H](OC3(C)O)[C@]2(C)C(=O)CC[C@H]12 (stereo not given in full)
  i, -0.72
Cc1cc(C)nc(N2CCCC(C(=O)NC(C)C)C2)n1 (stereo not given)
  i, -0.13
COc1ccc(S(=O)(=O)N2CCC(C(=O)N[C@H](C(=O)NC3CCCC3)C(C)C)CC2)cc1
  i, -1.7
FC(F)(F)c1cccc(CN2CCSCC2)c1
  i, 1.5
O=C1CCC(C(=O)N2CCOCC2)CN1Cc1cccc(C(F)(F)F)c1 (stereo not given)
  i, -1.3
Cc1cccc(-c2cc(C(=O)Nc3sc(C)c(C)c3C(N)=O)c3ccccc3n2)c1
  i, -0.14
Cc1cccc(N/C=C/C(=O)c2cccs2)c1C
  i, -1.8
NC(=S)N/N=C/c1ccc(-c2ccc([N+](=O)[O-])cc2)o1
  i, -0.09
CCOC(=O)C1=C(CN2CCc3ccccc32)NC(=O)NC1c1cccc([N+](=O)[O-])c1 (stereo not given)
  i, 7.4
O=C(O)c1ccc(S(=O)(=O)N2CCC(c3nc(-c4ccccc4Cl)no3)CC2)cc1
  i, -0.71
Cc1ccccc1NC(=O)N1CCCC(c2nc(-c3ccc(F)cc3)no2)C1 (stereo not given)
  i, -0.35
COc1ccc(NS(=O)(=O)c2csc(C(=O)Nc3ccccc3)c2)cc1
  i, -0.02
O=c1ccc2cc(S(=O)(=O)N3CCOCC3)ccc2o1
  i, -0.35
CC(C)(C)c1ccc(C(=O)NCCN2CCCC2)cc1
  i, 0.2

Compound profiles (already shown). Values in the order: KCNQ2 block | KCNQ2 block baseline
Entry for C=C(C)c1cccc(C(C)(C)NC(=O)N2CCC(C)CC2)c1 = i | -2.2
Entry for COc1ccc(OC(C)C(=O)NC2CCCCCC2)cc1 (stereo not given) = i | -1.3
Entry for COCCNC(=S)N/N=C(\C)c1cc2ccccc2o1 = i | -0.28
Entry for CC(C)(C)c1ccc(C(=O)NCCN2CCCC2)cc1 = i | 0.2

Further compounds follow:
Every second line gives: KCNQ2 block, KCNQ2 block baseline
O=C(c1ccc(COc2ccc(Cl)cc2Cl)o1)N1CCCC1
  i, 0.92
COc1ccc(S(=O)(=O)Nc2cc3c4c(c2)CCN4C(=O)CC3)cc1
  i, -0.6
CC(C)C[C@H](NC(=O)OC(C)(C)C)c1nnc(SCc2ccccc2)o1
  -6.9*, -0.65*
COc1cccc(NC(=O)c2nc3ncccn3n2)c1
  i, -0.12
CCN(CC(=O)Nc1ccccc1C(F)(F)F)C(=O)c1cc(-c2cccs2)nn1-c1ccccc1
  i, -2.2
O=C(CN(CC1CCCO1)C(=O)CNS(=O)(=O)c1ccc(Cl)cc1)NCc1ccc(F)cc1 (stereo not given)
  i, -0.5
COc1ccccc1-c1cnnc(N/N=C/c2ccc(-c3cccc(Br)c3)o2)n1
  i, 0.01
COC(=O)c1cccc(C(=O)Nc2ccc(C)cc2)n1
  i, 0.99
CC(=O)N1CCC(=NNc2ncc(C(F)(F)F)cc2Cl)CC1
  i, -1
CC(C)NC(=O)N(Cc1ccc(Cl)cc1)Cc1cccs1
  i, 0.45
Cn1c(CNC2CCCCC2)nc2ccccc21
  i, 0.23
O=C(NCc1ccc(Cl)cc1)c1cnn2ccccc12
  i, 0.43
NC(=O)c1ccc(-n2nnnc2Oc2ccccc2)cc1
  i, 1.2
O=C(COc1ccc(F)cc1)N(Cc1ccc(Cl)cc1)C1CCS(=O)(=O)C1 (stereo not given)
  i, -0.17
O=C(COc1ccccc1[N+](=O)[O-])N1CCC(Cc2ccccc2)CC1
  i, -0.54
COc1nccnc1NS(=O)(=O)c1ccc(NC(=S)NC(=O)c2cccnc2)cc1
  i, -0.94
COc1ccc(C(=O)NNC2CC(=O)N(Cc3ccccc3)C2=O)cc1OC (stereo not given)
  i, -1.2
CC1(C)CC(CCC(=O)Nc2ccc(S(N)(=O)=O)cc2)C(=O)O1 (stereo not given)
  i, 0.36
Cc1ccc(NC(=O)CNC(C)c2ccccc2)cc1 (stereo not given)
  i, 2
COc1ccc(S(=O)(=O)Nc2ccccc2C(=O)Nc2nc(-c3ccc(F)cc3)cs2)cc1OC
  i, -0.68
COc1ccc(C/C(N)=N/n2cnnc2)cc1Cl
  i, -0.05
O=C(CCNC(=O)c1ccco1)Nc1ccc(N2CCOCC2)cc1
  i, -0.39
CCCCN(C(=O)c1ccc(OC(F)(F)F)cc1)c1c(N)n(CCC)c(=O)[nH]c1=O
  i, 1.5
CCN1CCN(C(=O)C2CCCN(c3ncnc4c3nc3n4CCCCC3)C2)CC1 (stereo not given)
  i, 0.14
CC1(C2(O)CC(c3ccccc3)ON2)CCCCC1 (stereo not given)
  i, 1.9
CCOc1ccc(C(C(=O)NC2CCCC2)N(Cc2ccccc2)C(=O)c2nsc(Cl)c2Cl)cc1 (stereo not given)
  i, 0.37
COc1cccc(-c2cc(C(=O)Nc3ccc([N+](=O)[O-])cn3)c3ccccc3n2)c1
  i, -0.97
Cc1ccc2cccc(OCC(=O)c3cc(C)n(Cc4ccco4)c3C)c2n1
  i, -0.1
C/C(=N/O)c1no[n+]([O-])c1/C(C)=N\O
  i, 0.04
COc1ccc(-c2nc(CN3CCN(c4ncccn4)CC3)c(C)o2)cc1C
  i, 0.09
COc1ccc(C(=O)N2CCN(S(=O)(=O)c3ccc(Cl)cc3)CC2)cc1OC
  i, 3
O=C(Nc1ccc(S(=O)(=O)Nc2ncccn2)cc1)c1nn(Cc2ccccc2)c(=O)c2ccccc12
  i, 0.19
COc1cccc(N2CCN(C(=O)CN(c3cc(C)cc(C)c3)S(=O)(=O)c3c(C)noc3C)CC2)c1
  i, -0.09
COc1ccccc1Nc1nc(C)nc2c1oc1ccccc12
  i, 0.53
O=C(Nc1ccc(C(=O)O)cc1)/C(=C\c1ccccc1)NC(=O)c1ccccc1
  i, 1.8
C=CCNC(=O)NC(=O)COC(=O)/C(C#N)=C/c1cc(C)n(CCC(C)C)c1C
  i, 0.65
Cc1ccc(-c2cc(C(F)F)n3ncc(C(=O)N4CCN5CCCC5C4)c3n2)cc1 (stereo not given)
  i, -1.5
CCn1cc(/C=C(\NC(=O)c2ccccc2)C(=O)NCCCN2CCOCC2)c2ccccc21
  i, 2.6
CCOCCn1c(SCc2c(F)cccc2Cl)nc2c1c(=O)[nH]c(=O)n2C
  i, 0.48
CCC(C)(C)NS(=O)(=O)c1cc(CN2C(=O)c3cccnc3C2=O)ccc1OC
  i, 1.1

An excerpt, so the mix of outcomes need not match the whole.
